ugtP null kill: kills S. aureus RN4220 lacking UgtP. S. aureus RN4220 ugtP deletion, OD600 growth, 16 h; some inactives read as strong as hits. growth inhibition, % (concentration not given with the values). 330,000 tested, 0.54% active. AID 1259309;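 active = z-score under -3 and OD600 up to 0.15 on both plates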;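 also: plate controls were untreated wells for no effect and antibiotic for full effect; wells of about 80 µL received 100 nL stock; the first replicate is given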
Bead autofluor: compound fluorescence in toxin protease inhibitor counterscreen. AID 624483. fluorescence intensity (no concentration beside the values). compound autofluorescence counterscreen, microsphere flow cytometry; stronger effect = higher value. 360,000 tested, 3.1% active;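 active = at least 3 SD above the mean of all compounds, about 16000 in these data; inconclusive = too few beads counted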;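 also: 100 nL of 1 mM stock went into each well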
Mtb hypoxia rep: Mtb hypoxia fluorescent reporter inhibition; M. tuberculosis hypoxia-regulated fluorescent reporter, fluorescence; fluorescence inhibition, % (concentration not given with the values); 300,000 tested, 0.1% active;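 active = 35 to 45% if threefold the growth effect, above 45% if 1.5-fold the growth effect; inactive = the rest, general growth blockers included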;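 also: wells of about 50 µL received 100 nL stock; 0% = vehicle wells and 100% = reference inhibitor wells; whole bacteria with a GFP reporter of the hypoxia response; strong numbers were not always called active; many hits fall short of the cut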
BJeLR viability: kills HRASV12-expressing BJeLR cells | AID 1554 | BJeLR (HRASV12) viability, CellTiter-Glo ATP luminescence, 48 h; reference of the scale not given here | inhibition, % (test concentration not listed) | 300,000 tested, 0.17% active;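 active = replicate mean above 50%; inconclusive = above 50% but judged a plate artefact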;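 also: 50 nL library stock added to about 25 µL; numbers are from one replicate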
PrP UTR inh: inhibition of PrP 5' UTR reporter expression | cell-based PrP 5' UTR mRNA reporter, plate reader | 340,000 tested, 0.35% active | AID 488862 | inhibition, % (concentration not given with the values);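 active = every replicate at 50% or more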;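 also: 0 = median of the neutral control wells; tested in H4 reporter cells; numbers are from one replicate; inactives centre near -14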
RN4220 kill: kills Staphylococcus aureus RN4220. S. aureus RN4220 growth, OD600, 16 h. inhibition, % (test concentration not listed). 330,000 tested, 0.33% active. AID 1259311;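 active = z-score of -3 or lower and OD600 up to 0.18 on both plates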;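 also: plate controls were untreated cells for no effect and reference antibiotic for full effect; stock transfer was 100 nL into about 80 µL; one replicate is shown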
Mtb hypoxia rep growth: also measured in Mtb hypoxia rep; calls as there; growth inhibition, %; measured here: M. tuberculosis growth (absorbance);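 0% = vehicle and 100% = reference antibiotic; read after six days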
Active calls of the source: *; ? = inconclusive; . = no result given.

molecule	ugtP null kill	Bead autofluor	Mtb hypoxia rep	Mtb hypoxia rep growth	BJeLR viability	PrP UTR inh	RN4220 kill
CN1CCN(C(=O)C2=C[C@@H](c3csc4ccccc34)C[C@@H](OCc3ccc(CO)cc3)O2)CC1	.	3632	.	.	-1	-10	.
COc1ccc(C(c2ccc(OC)cc2)C(Cl)(Cl)Cl)cc1	86	5527	15	19	.	-19	1.8
O=C1CC(=O)N(c2cccc(F)c2)N1	.	4917	.	.	0	-14	.
COc1cc(C(CCN2CCCC2)c2c(OC)cc(OC)c3ccc(=O)oc23)cc(OC)c1OC (configuration not stated)	1	3241	23	14	-9	-22	4.1
Nc1cc(=O)nc(SCC(=O)NC2CCCCC2)n1-c1ccccc1	1	9446	3	9	1	9	0.7
O=C1N=C(N2CCN(c3ccccc3)CC2)SC1=Cc1ccco1	-9	.	6	0	.	.	2.5
CC(=O)OCCN(CCCn1c(-c2ccncc2)nc2ccccc21)c1nc(CN2CCCCC2)cs1	4	3010	-5	-8	-2	-26	-6.0
O=C(Cn1c(=O)c2cccn2c2ccccc21)NCCc1ccc(Cl)cc1	-9	.	-10	2	2	-21	-1.7
CN(C)S(=O)(=O)c1cccc(NC(=O)c2ccc(N3CCOCC3)c([N+](=O)[O-])c2)c1	2	2251	-4	-13	-5	4	-2.9
CON=Cc1c(-c2ccc(Cl)cc2)nc2cc(C)ccn12	-11	.	20	7	.	.	-0.7

More compounds:
molecule	ugtP null kill	Bead autofluor	Mtb hypoxia rep	Mtb hypoxia rep growth	BJeLR viability	PrP UTR inh	RN4220 kill
COCCN(Cc1cc2cc3c(cc2nc1Cl)OCO3)C(=O)Nc1ccc(OC)cc1	0	2289	-6	3	2	-16	2.4
CC(OC(=O)c1cccc(S(=O)(=O)N2CCCCCC2)c1)C(=O)Nc1ccc(S(N)(=O)=O)cc1 (configuration not stated)	1	5564	7	0	5	-3	2.8
O=C(NN=Cc1cccs1)c1cccnc1	6	.	4	3	.	.	1.5
O=C1CCCN1CN1CCCCC1	17	3405	.	.	-2	5	2.5
COc1ccc(C(=O)Sc2nncc3ccccc23)cc1	1	4883	4	2	-5	-13	-0.3
O=C(Oc1cccnc1)c1cc(S(=O)(=O)N2CCOCC2)ccc1Cl	3	9891	16	5	-7	-32	4.2
O=C(OCC(=O)N1CCN(S(=O)(=O)c2ccc(Cl)cc2)CC1)C1CCC1	-6	5865	-5	10	5	-3	-0.3
CCOC(=O)Cc1csc(SCc2cc(=O)oc3cc(O)ccc23)n1	-3	2072	3	1	3	-16	4.1
CN1CCn2c1nc(N1CCCCC1)nc2=O	-5	21803*	1	5	1	-43	-0.7
Cc1nn(C)c2nc(-c3cccs3)cc(C(F)(F)F)c12	13	3340	-9	-3	0	-17	3.7

(more compounds)
molecule	ugtP null kill	Bead autofluor	Mtb hypoxia rep	Mtb hypoxia rep growth	BJeLR viability	PrP UTR inh	RN4220 kill
CCOC(=O)c1cnc(SCc2ccc(C)cc2)nc1N	8	4847	.	.	2	-46	-0.7
COCCN1Cc2cccc(C(=O)Nc3ccc(-c4nc5ccccc5[nH]4)cc3)c2C1=O	.	7639	.	.	3	-5	.
COc1ccc(Br)cc1C(=O)N/N=C/c1ccc2c(c1)n(C)c(=O)n2C	.	2532	.	.	-7	-16	.
CN(C)C(CNC(=O)C1CCN(S(=O)(=O)c2cc(Cl)ccc2Cl)CC1)Cc1ccccc1 (configuration not stated)	13	5224	8	6	.	.	3.1
Cc1ccc(OCC(=O)N/N=C\c2ccc(C)o2)c(C)c1	.	4517	.	.	5	-39	.
C=CCOc1ccc(C2/C(=C(\O)c3ccc4c(c3)OCCO4)C(=O)C(=O)N2CCCN2CCOCC2)cc1 (configuration not stated)	14	4469	-5	-8	-2	-1	4.4
O=C(c1ccc(F)cc1)N1CCN(c2ncccn2)CC1	7	10102	12	9	5	-13	4.2
COc1ccc(S(=O)(=O)N2CC(C)N(C(=O)N(C)C)C2C)cc1 (configuration not stated)	2	3854	10	-5	4	-16	2.2
O=C(NC1CCCC1)C(c1ccc(F)cc1)N(C(=O)c1csnn1)C1CC1 (configuration not stated)	0	3837	5	-4	0	-16	1.5
COC(=O)c1ccc(NC(=O)c2ccc3c(c2)C(=O)N(C)C3=O)cc1	11	3442	8	1	6	-17	3.4

Among those listed so far, these have two or more sulfur atoms:
molecule	ugtP null kill	Bead autofluor	Mtb hypoxia rep	Mtb hypoxia rep growth	BJeLR viability	PrP UTR inh	RN4220 kill
CC(OC(=O)c1cccc(S(=O)(=O)N2CCCCCC2)c1)C(=O)Nc1ccc(S(N)(=O)=O)cc1 (configuration not stated)	1	5564	7	0	5	-3	2.8
CCOC(=O)Cc1csc(SCc2cc(=O)oc3cc(O)ccc23)n1	-3	2072	3	1	3	-16	4.1

The results go on.
molecule	ugtP null kill	Bead autofluor	Mtb hypoxia rep	Mtb hypoxia rep growth	BJeLR viability	PrP UTR inh	RN4220 kill
COC(=O)c1ccccc1NC(=O)CN(Cc1ccccc1)S(C)(=O)=O	-5	5187	-1	0	-12	-21	3.8
CC(=O)N1CCN(S(=O)(=O)c2cccc(C(=O)OCC(=O)N(Cc3ccccc3)C(C)(C)C)c2)CC1	3	3631	2	1	.	-1	3.9
CCCC[C@@H]1CNCCN1CC1(c2ccccc2)CC1	.	5313	.	.	13	-4	.
CCc1c(C2(O)CCCCC2)[nH]c2ccc(C#N)cc12	1	4068	3	-1	1	7	1.5
Cc1ccc(S(=O)(=O)c2nnn3c2nc(NC2CCN(Cc4ccccc4)CC2)c2ccccc23)cc1C	5	6525	.	.	20	-12	1.2
COc1ccc(NC(=O)CCN2C(=O)[C@@H]3[C@H](C2=O)[C@H]2C=C[C@@H]3C2)cc1	11	4537	9	5	10	-19	1.1
c1ccc(CCCc2nc(-c3cccnc3)no2)cc1	-3	3585	18	8	-11	-35	3.7
COc1ccc(OC)c(S(=O)(=O)Nc2cccnc2)c1	15	16005	6	9	0	-17	7.1
Cc1cccc(C2Nc3cccc4cccc(c34)N2)c1	-14	3580	18	4	-3	-19	-1.4
O=C(CSc1ncccc1-c1nc2ccccc2[nH]1)Nc1ccc2c(c1)OCCO2	2	7649	10	0	-12	-7	3.4

Additional compounds follow.
molecule	ugtP null kill	Bead autofluor	Mtb hypoxia rep	Mtb hypoxia rep growth	BJeLR viability	PrP UTR inh	RN4220 kill
Cc1cccc(NC(=O)c2ccc(S(=O)(=O)N3CCC(C)CC3)cc2)n1	.	5286	.	.	1	-26	.
CCCC[N+](CC#Cc1ccccc1)(CCCC)CCCS(=O)(=O)[O-]	10	2083	3	1	2	0	5.4
COc1ccc(NC(=O)CSc2nc(O)cc(=O)n2-c2ccccc2)cc1	1	4238	2	0	-3	-8	2.8
CC(C)(C)n1nc2c(c1NC(=O)Cc1ccccc1)CS(=O)(=O)C2	5	4382	14	4	.	-8	14
Cc1ncsc1CCC(=O)N1CCCC(Nc2ccc(F)c(F)c2)C1 (configuration not stated)	1	5277	-1	-1	-2	-22	0.7
CC(C(N)=O)N1CC(c2ccc(Cl)cc2)CC1=O (configuration not stated)	5	?	-2	2	-6	7	13
CC(=NNS(=O)(=O)c1ccc(Br)cc1)c1ccc(-n2ccnc2)cc1	3	.	8	6	.	.	2.0
COc1c(/C=N/Nc2nc(N3CCCCC3)nc(N3CCCCC3)n2)cccc1[N+](=O)[O-]	.	11568	.	.	-11	-8	.
Cc1ccc(-c2csc(NC(=S)NC(=O)c3cc4ccccc4o3)n2)cc1	-12	2069	7	5	4	-26	1.6
COc1cc(C(=O)NNC(=S)NC(=O)c2ccccc2C)cc(OC)c1OC	0	2102	9	11	-4	-26	21

Later entries:
molecule	ugtP null kill	Bead autofluor	Mtb hypoxia rep	Mtb hypoxia rep growth	BJeLR viability	PrP UTR inh	RN4220 kill
O=C(Nc1ccccc1C(=O)N/N=C/c1ccccc1)c1ccco1	.	3238	.	.	-4	-5	.
Cc1cccc(N2CCN(C(=O)c3ccoc3C)CC2)c1C	9	2616	9	8	-6	-9	2.0
O=c1cnnc(NN=Cc2cccs2)[nH]1	8	.	13	8	.	.	4.2
O=S(=O)(c1ccc(F)cc1)N1CCN(CC(O)COc2ccccc2F)CC1 (configuration not stated)	9	3845	4	-7	-11	-7	2.9
CN1CCN(/N=C/c2ccc(Br)cc2)CC1	.	3424	.	.	20	-60	.
Fc1ccc(-n2nnc(-c3ccnc4ccccc34)n2)cc1	5	3066	9	-7	-3	-56	4.6
Cc1cc(OC(C)C(=O)NCC(O)c2ccccc2)c2c(C)cc(=O)oc2c1 (configuration not stated)	8	4215	9	1	-6	-19	-0.3
CCOC(=O)C1=C(CS(=O)(=O)c2ccc(F)cc2)NC(=O)NC1c1cc(OC)c(O)c(OC)c1 (configuration not stated)	5	5212	5	3	4	0	2.0
Cc1ccccc1NC1=C(C(=O)c2ccccc2)N(C)S(=O)(=O)c2ccccc21	18	3169	.	.	10	-6	-3.8
CNC(=O)C1CC(=O)N(c2ccc(OCC(=O)Nc3ccc(OC)cc3)cc2)C1 (configuration not stated)	3	?	-9	3	.	11	0.9

Later entries:
molecule	ugtP null kill	Bead autofluor	Mtb hypoxia rep	Mtb hypoxia rep growth	BJeLR viability	PrP UTR inh	RN4220 kill
O=C(CNC(=O)c1ccccc1Br)NN=Cc1ccco1	6	.	-4	-17	.	.	0.6
CCCCN(C)C(=O)CCCCn1c(=O)[nH]c2cc(OCC)c(OCC)cc2c1=O	3	4420	3	10	-8	-19	6.3
C=CCn1c(SCC(=O)NC2CCCC2)nnc1-c1ccncc1	6	5715	11	8	-2	-12	4.3
CCOC(=O)c1sc(-c2ccccc2)cc1NC(=O)c1ccc(S(=O)(=O)N(CCOC)CCOC)cc1	.	2677	.	.	5	-9	.
CCCCCC(=O)Nc1ccc(S(=O)(=O)Nc2ccc(Cl)nn2)cc1	10	1954	18	6	-22	9	3.4
COc1ccccc1C(=O)COC(=O)c1ccc(Cl)nc1	7	?	5	0	.	-19	3.8
Clc1ccc(-c2cc3ccccc3nc2N2CCCC2)cc1	72	3133	.	.	8	-26	-2.9
NC(=O)CC(NC(=O)c1ccccc1)c1ccc(NCc2ccc(F)cc2)c([N+](=O)[O-])c1 (configuration not stated)	4	2854	7	5	-1	-3	0.6
Cc1ccc2c(c1)c1c3n2CCCNC3CCC1 (configuration not stated)	-6	9935	8	10	5	1	3.3
COc1cc2cc(CN(CCN3CCCC3)C(=O)Nc3ccccc3Cl)c(=O)[nH]c2cc1OC	2	14366	10	10	.	-21	3.5

Continued:
molecule	ugtP null kill	Bead autofluor	Mtb hypoxia rep	Mtb hypoxia rep growth	BJeLR viability	PrP UTR inh	RN4220 kill
COc1ccccc1NC(=O)CSc1nc2ccccc2c(=O)n1CCNC(C)=O	-6	7865	-5	15	0	-18	3.0
CCCCC/C=C/C1=CC(=O)C[C@H](c2ccc(OC)cc2)C1	23	3134	7	8	.	-2	-3.8
CCCCC(=O)NCCNC(=O)c1cc(OCC(F)(F)F)ccc1OCC(F)(F)F	-8	3417	9	7	4	-5	2.5
Nn1c(Cc2ccccc2)nc2ccccc2c1=O	-1	4205	-3	11	10	-10	1.9
Cc1cccc(C)c1NC(=O)C1CCCN1S(=O)(=O)c1ccccc1 (configuration not stated)	5	3690	-3	-3	-1	-13	4.0
C=CCn1cc(C=C2C(=O)N(C)C(=O)N(C)C2=O)c2ccccc21	-4	3890	5	4	14	-13	1.8
O=C1Nc2ccccc2C1=Nc1ccc(Br)cc1	5	4001	8	3	-2	-30	1.8
CC(C)(C)CC(C)(C)NCC(O)COc1ccc2c(c1)CCC2 (configuration not stated)	-4	4935	.	.	2	3	2.9
